Source: PubChem
Polio RdRp inh – inhibitors of poliovirus RNA polymerase binding and polymerization; P03300; % elongation, % (compound at 16.7 µg/mL); poliovirus polymerase elongation, fluorescence polarization; stronger effect = lower value; actives 0.66% (n = 150,000); in the data active = % elongation below about 90%; note: some results filed as inactive read as strong as hits
Target sequence (P03300 1749-2209 limits assumed): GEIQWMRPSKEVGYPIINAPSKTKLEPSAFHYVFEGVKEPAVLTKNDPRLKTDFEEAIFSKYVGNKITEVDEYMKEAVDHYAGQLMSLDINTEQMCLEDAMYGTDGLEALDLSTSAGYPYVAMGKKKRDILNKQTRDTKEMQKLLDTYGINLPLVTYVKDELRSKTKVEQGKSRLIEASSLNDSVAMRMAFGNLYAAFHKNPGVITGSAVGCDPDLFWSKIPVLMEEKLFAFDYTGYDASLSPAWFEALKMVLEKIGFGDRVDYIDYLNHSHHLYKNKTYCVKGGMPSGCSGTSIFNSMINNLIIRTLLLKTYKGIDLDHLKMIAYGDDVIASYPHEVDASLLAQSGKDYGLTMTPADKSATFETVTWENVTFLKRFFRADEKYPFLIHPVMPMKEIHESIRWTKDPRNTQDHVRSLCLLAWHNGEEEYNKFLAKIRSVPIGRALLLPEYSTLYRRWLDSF
Polio RdRp inh intensity – also measured in Polio RdRp inh; calls as there; % elongation; measured here: total intensity read-out; formula for this scale not given here;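 total fluorescence in place of polarization; lower means less elongation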
Active calls of the source: *. A portion of the library (hit frequency here may not be typical).

# | smiles | Polio RdRp inh | Polio RdRp inh intensity
1 | COc1ccc(Cl)cc1NC(=O)CSc1c2c(nc3ccccc13)CCC2 | 98.0 | 104.0
2 | O=C(CSc1nccn1Cc1ccc(Cl)cc1)Nc1ccc2c(c1)OCO2 | 106.0 | 114.0
3 | Cc1cc(N2CCN(c3cccc(C(F)(F)F)c3)CC2)n2nc(-c3ccccc3)nc2n1 | 107.0 | 108.0
4 | O=c1c2sc3ccccc3c2n(Cc2ccc(F)cc2)c(=O)n1Cc1ccco1 | 104.0 | 105.0
5 | COCCCNC(=O)Cn1cnc2sc(C)c(S(=O)(=O)N3CCN(c4ccccc4OC)CC3)c2c1=O | 109.0 | 112.0
6 | CCc1ccc(NC(=O)Cn2c(=O)n(Cc3ccc4c(c3)OCO4)c(=O)c3oc4ccccc4c32)cc1 | 108.0 | 115.0
7 | Cn1c(=O)c2c(-c3ccccc3)n(-c3cccc(C#N)c3)cc2n(C)c1=O | 101.0 | 104.0
8 | Cc1ccc(-c2noc(CSc3nnc(C)n3-c3ccc(C)c(C)c3)n2)cc1 | 104.0 | 101.0
9 | CCn1nc(C)c2c(-c3ccccc3)cc(=O)n(C(C)C(=O)Nc3cc(C)ccc3C)c21 (stereo not given) | 101.0 | 109.0
10 | Cc1noc(/C=C/N(C)C)c1S(=O)(=O)N1CCCC(C(=O)Nc2ccc(F)cc2F)C1 (stereo not given) | 101.0 | 104.0
11 | Cn1c(=O)cc(OCC(=O)NCc2ccc(F)cc2Cl)c2ccccc21 | 106.0 | 110.0
12 | CCc1ccc(CNCc2c(C(=O)O)n(Cc3ccc(F)cc3Cl)c3cc(OC)ccc23)cc1 | 102.0 | 93.0
13 | Cc1cc(C)cc(NC(=O)C2CCN(c3cc(C)nc4c(-c5ccc(Cl)cc5)c(C)nn34)CC2)c1 | 106.0 | 110.0
14 | Cc1cc(C)cc(NC(=O)CN2C(=O)c3ccccc3Sc3ccc(C(=O)N4CCOCC4)cc32)c1 | 103.0 | 102.0
15 | O=C(CSc1ncc(S(=O)(=O)c2ccc(Cl)cc2)c(=O)[nH]1)Nc1ccc2c(c1)OCCO2 | 107.0 | 111.0
16 | Cc1ccc(CNC(=O)c2c[nH]c3ccc(S(=O)(=O)N4CCOCC4)cc3c2=O)cc1 | 96.0 | 100.0
17 | CCOC(=O)CC(NC(=O)CCc1c(C)nc2ncnn2c1C)c1ccc(OC(C)C)cc1 (stereo not given) | 105.0 | 103.0
18 | O=C(C1COc2ccccc2O1)N(Cc1cccnc1)c1nc2ccc(Cl)cc2s1 (stereo not given) | 101.0 | 97.0
19 | CCc1cc2c(-c3ccccc3)cc(=O)oc2c2c1OCN(Cc1ccc(F)cc1)C2 | 103.0 | 110.0
20 | CCN(C(=O)Cn1ncc2c(=O)oc3ccccc3c21)c1ccccc1F | 105.0 | 103.0
21 | O=C(NCc1ccccc1)C1CCN(S(=O)(=O)c2ccc3[nH]c(=O)ccc3c2)CC1 | 106.0 | 110.0
22 | CCN1CCN(c2ncc3c(n2)CCN(Cc2cc(Br)cs2)C3)CC1 | 102.0 | 98.0
23 | COc1ccc(Cl)cc1NC(=O)c1c(NCc2cccs2)sc2c1CCCC2 | 138.0 | 167.0
24 | Cc1ccc(Cl)cc1NC(=O)NC1COc2ccccc2C1 (stereo not given) | 105.0 | 110.0
25 | Cc1ccc(-c2nn3c(-c4ccc(C)cc4)nnc3c3ccccc23)cc1 | 106.0 | 108.0
26 | CCc1ccc(S(=O)(=O)c2cn(C)c3cc(N4CCN(CC)CC4)c(F)cc3c2=O)cc1 | 107.0 | 107.0
27 | Cc1ccc2nc3c(cc(C(=O)NCC4CCCO4)c(=N)n3C(C)C)c(=O)n2c1 (stereo not given) | 103.0 | 106.0
28 | CN(C(=O)CCNC(=O)Cn1cnc2ccccc2c1=O)c1ccccc1F | 108.0 | 108.0
29 | O=C(Cn1ncc2c3ccccc3n(Cc3ccccc3)c2c1=O)NC1CCCCCC1 | 111.0 | 107.0
30 | O=C(COc1ccccc1)NCC(c1ccc(Cl)cc1)N1CCCCC1 (stereo not given) | 110.0 | 108.0

Entries of single compounds from above. Order of values: Polio RdRp inh	Polio RdRp inh intensity
Cc1cc(C)cc(NC(=O)C2CCN(c3cc(C)nc4c(-c5ccc(Cl)cc5)c(C)nn34)CC2)c1 is entered as 106.0	110.0
O=C(CSc1nccn1Cc1ccc(Cl)cc1)Nc1ccc2c(c1)OCO2 is entered as 106.0	114.0

An excerpt of these results, with one line to a screen:
23. COc1ccc(Cl)cc1NC(=O)c1c(NCc2cccs2)sc2c1CCCC2
6. CCc1ccc(NC(=O)Cn2c(=O)n(Cc3ccc4c(c3)OCO4)c(=O)c3oc4ccccc4c32)cc1
8. Cc1ccc(-c2noc(CSc3nnc(C)n3-c3ccc(C)c(C)c3)n2)cc1
compound no. | 23 | 6 | 8
Polio RdRp inh | 138.0 | 108.0 | 104.0
Polio RdRp inh intensity | 167.0 | 115.0 | 101.0

Reformatted as labelled records: part of the list above.
[21] O=C(NCc1ccccc1)C1CCN(S(=O)(=O)c2ccc3[nH]c(=O)ccc3c2)CC1
  Polio RdRp inh: 106.0	Polio RdRp inh intensity: 110.0
[22] CCN1CCN(c2ncc3c(n2)CCN(Cc2cc(Br)cs2)C3)CC1
  Polio RdRp inh: 102.0	Polio RdRp inh intensity: 98.0
[23] COc1ccc(Cl)cc1NC(=O)c1c(NCc2cccs2)sc2c1CCCC2
  Polio RdRp inh: 138.0	Polio RdRp inh intensity: 167.0
[24] Cc1ccc(Cl)cc1NC(=O)NC1COc2ccccc2C1 (stereo not given)
  Polio RdRp inh: 105.0	Polio RdRp inh intensity: 110.0

Next results
# | smiles | Polio RdRp inh | Polio RdRp inh intensity
31 | CCC(=O)N1CCc2cc(S(=O)(=O)NC(CC(C)C)C(=O)Nc3cccc(C)c3C)ccc21 (stereo not given) | 101.0 | 103.0
32 | O=C1CSC2(C(=O)N(Cc3ccccc3F)c3ccccc32)N1c1cccc(C(F)(F)F)c1 (stereo not given) | 105.0 | 108.0
33 | COc1ccc(-n2cc(-c3ccccc3)c3c(NC4CCCC4)ncnc32)cc1 | 105.0 | 105.0
34 | CC(C)Sc1ncc(Cl)c(C(=O)Nc2ccc(S(=O)(=O)N(C)c3ccccc3)cc2)n1 | 110.0 | 116.0
35 | Cc1ccc(NC(=O)c2cnn(-c3ccc(C)c(C)c3)c2C2CCN(C(=O)OC(C)(C)C)CC2)c(C)c1 | 103.0 | 99.0
36 | CC(C)C(=O)OCc1cc(=O)n2nc(C3CCCCC3)sc2n1 | 110.0 | 112.0
37 | CCCC1=Nc2cc(C(=O)NCc3ccccc3)ccc2Sc2ccccc21 | 111.0 | 114.0
38 | CCOc1ccc(CCNC(=O)c2[nH]c3cc(OC)ccc3c2Sc2ccccc2)cc1OCC | 109.0 | 112.0
39 | CCC(=O)N1CCc2cc(Br)cc(S(=O)(=O)N3CCCC(C(=O)Nc4ccc(C(C)C)cc4)C3)c21 (stereo not given) | 102.0 | 104.0
40 | Cc1cc(C)cc(N(C)S(=O)(=O)c2nnc(NC(=O)COc3ccc(C)c(C)c3)s2)c1 | 106.0 | 114.0
41 | COc1ccccc1OCCn1c(COc2cc(C)ccc2C)nc2ccccc21 | 107.0 | 107.0
42 | CCOc1ccc(C2CC(=O)NC(NC(=O)c3ccc(C)cc3)=N2)cc1 (stereo not given) | 108.0 | 114.0
43 | Cc1cc(C)cc(NC(=O)N2CCN3CCCCC3C2)c1 (stereo not given) | 113.0 | 101.0
44 | CCC(C(=O)Nc1c(C)cc(C)cc1C)n1c(=O)c(-c2ccccc2NC(C)=O)nc2ccccc21 (stereo not given) | 105.0 | 105.0
45 | COc1ccc(NC(=O)C2=C(C)Nc3nc(CCCO)nn3C2c2ccc(O)cc2)cc1 (stereo not given) | 100.0 | 106.0
46 | Cc1ccc(NC(=O)c2cn3c4c(ccc(Cl)c4c2=O)OC(C)C3)c(C)c1 (stereo not given) | 105.0 | 102.0
47 | Cc1cccc(Nc2c3c(nc4nncn24)CCC3)c1 | 111.0 | 115.0
48 | CCCN(CCC)CC(O)Cn1cc(/C=C/C(=O)c2ccc(Br)cc2)c2ccccc21 (stereo not given) | 120.0 | 128.0
49 | O=C(Nc1nnc(S(=O)(=O)Nc2ccccc2)s1)C1CCCCC1 | 114.0 | 112.0
50 | COc1ccc(-c2noc(CN(C(=O)c3ccccc3Cl)C(C)C)n2)cc1 | 111.0 | 112.0
51 | Cc1cccc(C)c1NC(=O)Cn1cc(S(=O)(=O)Cc2ccc(F)cc2)c2ccccc21 | 99.0 | 112.0
52 | O=C(NCCSCc1cccc(Cl)c1)C1CCN(S(=O)(=O)Cc2ccccc2)CC1 | 107.0 | 115.0
53 | COc1ccc(-c2nc(SCC(=O)NC3CCCC3)c(-c3ccc(F)cc3)[nH]2)cc1 | 110.0 | 109.0
54 | CCOc1ccc(N2CC(NC(=O)Cc3cccs3)CC2=O)cc1 (stereo not given) | 102.0 | 103.0
55 | CCc1ccc(C(=O)c2cn(CC(=O)Nc3ccc(OC)cc3)c3cc4c(cc3c2=O)OCCO4)cc1 | 107.0 | 108.0
56 | Cc1ccc(S(=O)(=O)NCCc2nnc3ccc(SCc4ccc(F)cc4)nn23)cc1 | 104.0 | 99.0
57 | COc1ccc(Cl)cc1NC(=O)CSc1nnc(C)n2c1cc1sccc12 | 108.0 | 110.0
58 | CC(C)Oc1ccc(C(=O)N(Cc2ccc(N(C)C)cc2)Cc2ccco2)cc1 | 101.0 | 96.0
59 | COc1ccc2c(Sc3ccc(C)cc3)c(C(=O)NC(C)c3ccccc3)[nH]c2c1 (stereo not given) | 107.0 | 113.0
60 | Cc1ccc(NC(=O)C2CCCN(c3nnc(-n4c(C)ccc4C)s3)C2)cc1Cl (stereo not given) | 107.0 | 108.0
61 | Cc1ccc(-n2c(SCC(N)=O)nc3c(oc4ccccc43)c2=O)cc1 | 107.0 | 110.0
62 | CCc1noc(-c2ccc(N3CCCCC3C)c([N+](=O)[O-])c2)n1 (stereo not given) | 103.0 | 91.0
63 | CC(=O)c1cc(-c2ccccc2)n(CCC(=O)Nc2cc(C)cc(C)c2)c1C | 100.0 | 104.0
64 | CCn1cc2nc(SCc3ccc(F)cc3)n(Cc3ccc(Cl)cc3)c(=O)c2n1 | 104.0 | 101.0
65 | CCn1nc(C)c2c(-c3ccccc3)cc(=O)n(C(C)C(=O)NCCc3ccccc3)c21 (stereo not given) | 106.0 | 108.0
66 | CCOc1ccc(NC(=O)NCCCN2CCN(c3ccc(OC)cc3)CC2)cc1 | 111.0 | 113.0
67 | Cc1ccc(N2CC(NC(=O)c3ccc(S(=O)(=O)N4CCCC4)cc3)CC2=O)cc1 (stereo not given) | 105.0 | 105.0
68 | CCOC(=O)c1ccc(NC(=O)CC2C(=O)N(c3ccccc3)C(=O)N2Cc2ccc(C)cc2)cc1 (stereo not given) | 106.0 | 111.0
69 | O=C(CSc1nnc(-c2cccc(Cl)c2)o1)N1CCc2ccccc21 | 109.0 | 111.0
70 | O=C(Cn1cc(SCc2cccc(Cl)c2)c2ccccc21)N1CCCCCC1 | 124.0 | 124.0
71 | Cc1ccccc1S(=O)Cc1ccc(C(=O)NCc2ccccc2Cl)o1 (stereo not given) | 104.0 | 106.0
72 | CCCc1cc(=O)[nH]c(Nc2cccc(Cl)c2Cl)n1 | 110.0 | 113.0
73 | CC1CCN(C(=O)Cn2c(=O)n(CCCCCC(=O)NCc3ccccc3Cl)c(=O)c3sccc32)CC1 | 108.0 | 107.0
74 | COc1ccc(S(=O)(=O)c2c(Nc3ccc(C)cc3)sc(C(=O)c3ccc4c(c3)OCO4)c2N)cc1 | 109.0 | 108.0
75 | Cc1ccc(Cn2cc(S(=O)(=O)c3ccccc3)c(=O)c3cc(F)c(N4CCOCC4)cc32)cc1 | 106.0 | 102.0
76 | CCCCOC(=O)/C(C#N)=C/c1ccc(-c2cccc(C(F)(F)F)c2)o1 | 109.0 | 112.0
77 | CCOC(=O)C1CCCN(S(=O)(=O)c2cc3c(cc2C)NC(=O)CO3)C1 (stereo not given) | 109.0 | 112.0
78 | COc1ccc(N2CCN(C(=O)c3cc4c(s3)-c3c(C)cccc3OC4)CC2)cc1 | 99.0 | 106.0
79 | COc1ccc(N2CCN(C(=O)c3cc4c(=O)n(Cc5ccco5)ccc4nc3C)CC2)cc1 | 102.0 | 106.0
80 | COCC(=O)NCc1nc2cccnc2n1Cc1ccc(F)cc1 | 106.0 | 113.0
81 | Cc1ccc(OCCCCn2c(CCNC(=O)C(C)(C)C)nc3ccccc32)cc1 | 110.0 | 113.0
82 | CCn1nnc2cc(C(=O)Nc3cccc(C(F)(F)F)c3)ccc21 | 108.0 | 113.0
83 | CCCOc1ccc(C2=NC(c3ccc(F)cc3)=Nc3ccc(OC)cc3N2)cc1 | 96.0 | 105.0
84 | O=C(CCCc1ccccc1)NC1CC(=O)N(c2ccc(F)cc2)C1 (stereo not given) | 101.0 | 108.0
85 | Cc1ccc(N2CCN(C(=O)c3cc(S(=O)(=O)N4CCCCC4)c[nH]3)CC2)c(C)c1 | 107.0 | 114.0
86 | O=C(CSCc1ccc(F)cc1)N1CCc2c([nH]c3ccccc23)C1c1ccccc1 (stereo not given) | 109.0 | 115.0
